miR-21 reporter = raises the signal of a miR-21 reporter. HeLa miR-21 FLuc reporter, luciferase, 48 h. AID 2288. Potency, µM (top dose mostly 38.3 µM), without a hit: top-dose reporter change, positive = more light. 340,000 tested, under 10 active; active = well fitted rising curve with a large enough effect; inconclusive = small, poorly fitted or top-dose-only effect; inactive = no such curve, though single readings can be large or run the other way;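 also: % of control where 0% means no effect; miR-21 action dims this reporter so a rising signal means less miR-21 action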
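Using DMEM plus 10% FBS, HeLa miR-21-FLuc cells are incubated with test compounds (final up to about 40uM) for 48 hours; firefly luciferase signal is then imaged following reagent-mediated lysis.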
Rango release inh = prevents RanGTP from dissociating the Rango-importin beta complex; O95149+P62826; Biochemical FRET Rango-importin beta, RanGTP-induced dissociation; Potency, µM (doses to about 46.1 µM), without a hit: at the highest dose activity change, negative = inhibition; actives 0.071% (n = 340,000); AID 540253; active means falling FRET ratio curve, often poorly fitted, with flat reads before Ran was added; inconclusive means other falling curves, or compound fluorescence or quenching; inactive means flat or rising ratio curve;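 also: potency is read from the fitted curve at half-maximal effect; % of control where 0% means no effect; nearly all actives have a fitted effect of over 45% in size; -100% = wells without RanGTP and RCC1; the record marks most hits as doubtful in a second field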
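Recombinant Rango FRET biosensor (EYFP–snurportin 1 IBB–cerulean CFP10) at 0.1 uM premixed with 0.25 uM importin beta in PBS, 1 mM DTT, 0.02% Tween-20, 0.1% BSA. Compound added 5 min; RanGTP-RCC1 (0.6 uM Ran, 2 mM GTP, 0.2 uM RCC1) then triggers release, read at 45 min.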
GLA inh pH 4.5 = blocks human alpha-galactosidase A at pH 4.5. P06280. purified enzyme, 4-MU-alpha-Gal fluorescence, pH 4.5. activity change, negative = inhibition, % at 105 µM. 230,000 tested, under 10 active. AID 1467; inconclusive = small, poorly fitted or top-dose-only inhibition, or a rising curve; inactive = flat fitted curve, though single readings scatter; no compound was filed as active;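 also: 0% = full activity with enzyme and -100% = basal without enzyme; dose as in the result columns while the protocol names 77 µM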
Target sequence (P06280 whole entry, looked up): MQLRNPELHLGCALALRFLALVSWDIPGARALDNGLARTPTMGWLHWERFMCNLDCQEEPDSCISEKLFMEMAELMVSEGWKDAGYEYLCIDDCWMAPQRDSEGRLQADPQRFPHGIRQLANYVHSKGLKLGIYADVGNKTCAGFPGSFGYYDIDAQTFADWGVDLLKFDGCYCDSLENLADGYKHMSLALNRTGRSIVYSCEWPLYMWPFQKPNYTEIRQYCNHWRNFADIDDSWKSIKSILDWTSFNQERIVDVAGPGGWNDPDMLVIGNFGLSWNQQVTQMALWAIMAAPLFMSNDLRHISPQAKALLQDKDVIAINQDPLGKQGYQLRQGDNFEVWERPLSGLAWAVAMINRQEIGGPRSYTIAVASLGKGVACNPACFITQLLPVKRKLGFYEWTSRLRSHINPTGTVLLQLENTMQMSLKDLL
Rango complex inh = inhibitors of Rango-importin beta complex formation. actives 0.031% (n = 340,000). Rango CFP/YFP FRET sensor + importin beta, 45 min. AID 540263. Q14974. Potency, µM (top dose mostly 92.2 µM), inactives show at the top dose inhibition of complex formation; active = rising FRET ratio curve, often small or poorly fitted; inconclusive = mostly compound fluorescence or quenching in the first reads; inactive = flat curves in all reads;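 also: potency is read from the fitted curve at half-maximal effect; 0% = DMSO wells and 100% = buffer wells lacking importin beta; nearly all actives have a fitted effect of over 15% in size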
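FRET biosensor Rango (snurportin 1 IBB between N-terminal EYFP and C-terminal Cerulean), 50 nM in PBS/1 mM DTT/0.02% Tween-20/0.1% BSA, preincubated 5 min RT with compound; 0.125 microM importin beta added, 45 min RT, CFP/YFP FRET ratio read.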
The depositor's hits bear a star; ? = inconclusive; . = no result given; & = joins results of further samples.

SMILES | miR-21 reporter | Rango release inh | GLA inh pH 4.5 | Rango complex inh
COc1ccc(S(=O)(=O)N(CC(=O)NCc2ccccn2)Cc2ccccc2)cc1 | -3.9% | 6.0% | . | 3.1%
N/C(=N\OC(=O)COc1ccc2ccccc2c1Br)c1ccncc1 | -62.1% | . | 1.0 | .
c1ccc(NC2=NCCN2CC2CCCCC2)cc1 | . | -7.0% | . | -0.6%
CC1(C)NC(=O)N(CN2C(=O)NC(C)(C)C2=O)C1=O | 1.4% | 17.5% | -3.8 | -3.9%
N#Cc1c(-c2ccccc2)cc(-c2ccccc2)nc1SCC(=O)O | -6.3% | 0.2% | . | -0.7%
CCCN(C(=O)CSc1n[nH]c(-c2ccc(OC)cc2)n1)c1c(N)n(Cc2ccccc2)c(=O)[nH]c1=O | . | 0.8% | . | -3.3%
O=C(c1ccc(Cn2cc(Cl)cn2)o1)N1CCN(Cc2ccc3c(c2)OCO3)CC1 | -9.1% | 0.2% | 0.9 | 7.7%
COc1ccc(C=O)cc1COc1c(F)c(F)cc(F)c1F | -11.3% | -17.4% | 6.3 | 0.3%
COc1ccccc1CCC(=O)NC1CCCN(c2ccc(C(F)(F)F)cn2)C1 (stereo not drawn) | -0.3% | ? | . | 5.4%
CCCC(=O)Nc1nc2ccc(C(=O)OCC)cc2s1 | -32.4% | 20.9% | 6.6 | -1.8%

Molecules shown so far that have an aryl thioether with sulfur outside any ring (two):
SMILES | miR-21 reporter | Rango release inh | GLA inh pH 4.5 | Rango complex inh
N#Cc1c(-c2ccccc2)cc(-c2ccccc2)nc1SCC(=O)O | -6.3% | 0.2% | . | -0.7%
CCCN(C(=O)CSc1n[nH]c(-c2ccc(OC)cc2)n1)c1c(N)n(Cc2ccccc2)c(=O)[nH]c1=O | . | 0.8% | . | -3.3%

Next results.
SMILES | miR-21 reporter | Rango release inh | GLA inh pH 4.5 | Rango complex inh
Cc1ccnc(NC(=O)CCC(=O)c2cc(C)sc2C)c1 | . | -11.3% | . | ?
Cc1cccc(-n2nc3c(c2NC(=O)c2ccc(S(=O)(=O)N4CCOCC4)cc2)CSC3)c1C | -0.2% | 0.3% | -1.7 | -1.1%
Cc1nc(-c2ccccc2)cc(-c2ccccc2)n1 | . | 28.1% | . | 2.7%
Cc1ccc(C2(c3noc(CN4CCC(c5ccncc5)CC4)n3)CCCC2)cc1 | 20.6% | -3.3% | -9.1 | -0.7%
Cc1ccc(S(=O)(=O)n2nc(OC(=O)c3cccs3)cc2N)cc1 | -1.3% | 10.6% | 3.1 | 5.5%
Cc1ccc(C)c(S(=O)(=O)Nc2cc3c4c(c2)CCC(=O)N4CCC3)c1 | . | -12.3% | . | -6.2%
O=C(N/N=C/c1ccccc1Cl)c1n[nH]c2c1CCCC2 | -59.2% | 12.0% | 2.6 | 7.6%
O=C(NC1CCS(=O)(=O)C1)c1ccc(Br)s1 (stereo not drawn) | . | 8.3% | . | -2.7%
CC(C)Cc1ccc(CN2CCCC(NC(=O)Cn3cnnn3)C2)cc1 (stereo not drawn) | -1.2% | -3.7% | . | 0.2%
O=c1c(-c2ccc(O)cc2)coc2cc(OC3OC(CO)C(O)C(O)C3O)cc(O)c12 (stereo not drawn) | -64.5% | -13.6% | 11.2 | -0.6%
COC(=O)NCc1cc2cc(Cl)ccc2[nH]1 | 19.7% | -9.0% | -1.6 | -0.3%
Nc1nnc(CC(=O)Nc2ccccc2)s1 | -8.4% | -7.6% | -8.0 | -1.7%
COc1ccc(OCC(O)CNCc2ccco2)cc1 (stereo not drawn) | -7.9% | 12.0% | 7.0 | 8.9%
CN1C[C@@H]2C[C@@H](c3ccc(C#CC(C)(C)O)s3)N3CCC[C@@]23C1=O | -1.7% | -4.0% | 3.8 | -1.7%
O=C(c1cccc(F)c1)N1CCN(C2CCCCC2)CC1 | -1.4% | -11.0% | 2.6 | 0.7%
CCCCOc1ccc(C(=O)N/C(=C/C=C/c2ccccc2)C(=O)NCCCO)cc1 | -6.5% | -5.3% | 0.9 | -2.7%
COc1cc(NC(=O)CSc2nc3[nH]c(=O)cc(O)c3s2)cc(OC)c1OC | . | 2.9% | . | -0.9%
COc1ncc(C2=CC(=O)CC(C)(C)C2)cn1 | . | 25.7% | . | ?
CN(C)S(=O)(=O)c1cccc(NC(=O)c2cccc(S(=O)(=O)N3CCc4ccccc43)c2)c1 | . | -1.0% | . | -0.1%
COc1cc(NC(=O)c2ccc3c(c2)C(=O)N(CCC(C)C)C3=O)c(C(=O)O)cc1OC | 0.5% | 7.9% | . | 0.8%
CCN(CC(=O)Nc1c(F)cccc1F)C(=O)c1ccc(N2CCCCC2)c([N+](=O)[O-])c1 | -4.7% | -14.5% | . | 2.0%
CCN1CCN(Cc2cc(=O)oc3ccc(Cl)cc23)CC1 | -13.3% | 1.0% | 6.5 | -1.8%
O=C(CCl)Nc1ccc(S(=O)(=O)NC2=NCCCCC2)cc1 | . | 10.9% | . | 0.0%
CC(C)(O)[C@@H]1[C@@H]2C[C@@]3(CC[C@]4(C)C(CCC5[C@@]6(C)CC[C@H](O)C(C)(C)C6CC[C@]54C)[C@@H]13)C(=O)O2 (stereo partly drawn) | . | -9.4% | . | 1.8%
COc1ccc(NC(=O)CCCNC(=O)Cn2cnc3sc4c(c3c2=O)CCCC4)c(OC)c1 | 2.2% | 0.6% | . | 0.7%
NCCCC[C@@H]1NC(=O)[C@H](CCC(=O)O)NC(=O)c2cc([N+](=O)[O-])cc(I)c2OCC[C@@H](C(N)=O)NC1=O | -7.8% | 5.7% | -19.9 | 0.1%
Cc1ccc(NC(=O)CCC(=O)c2cccs2)c(O)c1 | -51.2% | 1.6% | -2.4 | 0.1%
O=C(O)/C=C/C(=O)Nc1ccc2c(c1)NC(=O)CO2 | 1.9% | ? | 8.2 | -0.8%
Cc1cc(/C=C(\C#N)C(N)=O)c(C)n1-c1ccc(N2CCOCC2)c([N+](=O)[O-])c1 | 19.1% | 1.3% | -3.7 | 0.0%
CN1CCN(C(=O)CCN2C(=O)/C(=C\c3ccc(Cl)cc3)SC2=S)CC1 | 2.6% | -8.8% | . | -1.1%
Cc1ccc(-c2cn(-c3ccccc3)c3[n+]2CCCS3)cc1 | ? | 11.8%&-1.8% | -10.8&6.1 | 0.0%&-2.9%
CCOC(=O)C1CCN(c2ncnc3c2cnn3-c2ccc(OC)cc2)CC1 | 19.5% | 4.1% | -9.6 | -3.3%
CCC(=O)NC1=C(NC(C)c2ccccc2)C(=O)c2ccccc2C1=O (stereo not drawn) | 8.9% | -18.9% | -2.9 | -0.9%
COc1ccc(C(=O)NC(C(=O)OCC(=O)Nc2sccc2C(N)=O)C(C)C)cc1 (stereo not drawn) | . | 7.0% | . | 1.9%
CS(=O)(=O)N(CC(=O)N1CCCC1)Cc1ccc(F)cc1 | -4.1% | -15.4% | . | 0.8%
Cn1nnnc1SCC(=O)Nc1cc(C(F)(F)F)ccc1N1CCOCC1 | -1.2% | 14.2% | -6.8 | 0.1%
COc1cccc(N2CCCn3c2nc2c3c(=O)n(CCN3CCOCC3)c(=O)n2C)c1 | -3.9% | . | -2.6 | .
Cc1cc2oc(=O)cc(CN3CCOCC3)c2c(C)c1Cl | -0.5% | -6.7% | . | -0.6%
Cc1ccc2c(c1)N(CC(=O)N1CCCC1)C(=O)c1cccnc1O2 | -3.0% | ? | . | 3.0%
CCOC(=O)c1ccccc1C(=O)N1CCOCCOCCOCC1 | 1.7% | -0.1% | -2.6 | -1.5%
CC(C)(C)c1nnc(NC(=O)c2cccnc2)s1 | -18.1% | -4.0% | 8.4 | -0.6%
O=C(NC1CCCCC1)N1CCN(c2ccc(Cl)cc2)CC1 | 6.5% | 16.4% | . | 0.4%
Cc1nn(C(C)C)c(C)c1[C@@H]1C[C@H]2CN(Cc3cccc(Cl)c3)C(=O)[C@]23CCCN13 | 4.2% | 12.0% | -2.7 | -0.1%
Cc1cccc(NC(=O)N2CCc3ccccc3C2)c1C | -48.8% | -11.2% | . | -2.2%
COC(=O)c1ccc(CSCC(=O)Nc2ccccc2)cc1 | -2.4% | 0.7% | 1.4 | 3.4%
Nc1nc(SCC(=O)NCCN2CCOCC2)nc2sc3c(c12)CCC3 | -12.5% | 13.8% | 4.5 | 0.6%
COc1ccc(/C=N/NC(N)=S)cc1OC(=O)c1ccccc1 | 9.6% | 1.1% | 0.6 | -0.4%
CCC1Oc2ccccc2N(CC(=O)NCc2ccco2)C1=O (stereo not drawn) | -1.7% | -1.0% | 2.0 | -1.2%
CC(=O)Nc1ccc(S(=O)(=O)N2CCN(CCCOc3ccccc3Cl)CC2)cc1 | 28.2% | -2.7% | -7.9 | -3.1%
COc1ccc(NS(=O)(=O)c2cc(NC(=O)c3cccs3)ccc2N2CCCC2)cc1 | 4.0% | -8.4% | -12.4 | -0.8%

Ordered by formula weight (lowest first): 5 of the compounds above.
SMILES | miR-21 reporter | Rango release inh | GLA inh pH 4.5 | Rango complex inh
CC(C)(C)c1nnc(NC(=O)c2cccnc2)s1 | -18.1% | -4.0% | 8.4 | -0.6%
CCC1Oc2ccccc2N(CC(=O)NCc2ccco2)C1=O (stereo not drawn) | -1.7% | -1.0% | 2.0 | -1.2%
COC(=O)c1ccc(CSCC(=O)Nc2ccccc2)cc1 | -2.4% | 0.7% | 1.4 | 3.4%
CC(=O)Nc1ccc(S(=O)(=O)N2CCN(CCCOc3ccccc3Cl)CC2)cc1 | 28.2% | -2.7% | -7.9 | -3.1%
COc1ccc(NS(=O)(=O)c2cc(NC(=O)c3cccs3)ccc2N2CCCC2)cc1 | 4.0% | -8.4% | -12.4 | -0.8%

Next section:
SMILES | miR-21 reporter | Rango release inh | GLA inh pH 4.5 | Rango complex inh
O=C(NNC(=O)c1n[nH]c2ccccc12)c1ccccc1 | . | 3.3% | . | 4.0%
O=C(COC(=O)/C=C/c1ccccc1)Nc1ccc2c(c1)OCCO2 | . | 10.1% | . | 1.1%
CC(NC(=O)c1ccc(Cn2cc([N+](=O)[O-])cn2)cc1)c1ccccc1 (stereo not drawn) | 3.9% | 11.7% | -11.9 | -3.2%
COc1cccc(/C=N/n2c(C3CCCCC3)n[nH]c2=S)c1OC | -6.7% | 1.0% | . | -2.6%
CCOc1cccc(-c2nn(-c3ccccc3)cc2/C=C(/C#N)C(=O)NCCCn2ccnc2)c1 | 15.4% | -4.7% | -11.3 | 0.6%
O=C(CCc1nnc(-c2ccccc2)o1)NCc1c(F)cccc1F | -5.8% | -4.2% | 2.4 | ?
COCC(C)n1c(SCc2ccc(C(=O)OC)cc2)nc2ccccc2c1=O (stereo not drawn) | 3.3% | -8.2% | . | -2.5%
CCCCC12CN3CC(C)(CN(C1)C31C(=O)N(C)c3ccc(C)cc31)C2=O (stereo not drawn) | -3.8% | -2.6% | -5.3 | -2.3%
CONc1nc(NC(C)(C)C)nc(OCC#N)n1 | -7.9% | -11.4% | -1.9 | -1.4%
O=C(C1=C[C@@H](c2ccccc2)C[C@@H](OCc2ccc(CO)cc2)O1)N1CCOCC1 | -7.6% | 15.9% | 7.4 | -1.0%
COc1ccc(-c2oc(NC(C)=O)c(C#N)c2-c2ccc(OC)cc2)cc1 | 12.7% | -4.7% | -0.7 | 0.1%
CCOC(=O)N1CCN(C(=O)COc2ccc(Br)cc2)CC1 | -2.3% | -8.6% | 6.0 | -0.2%

Bioassay records (PubChem BioAssay)

Not all compounds are listed; rates above refer to the full screens.
